Compound activity: PubChem, National Center for Advancing Translational Sciences (NCATS)
GALK inh: galactokinase (human) inhibition. AID 1868. Potency, µM (top dose mostly 57.5 µM), inactives show at the highest dose activity change, negative = inhibition, hits mostly inhibitors. 270,000 tested, 0.007% active. P51570. Purified GALK, Kinase-Glo residual ATP luminescence; note: potency is the fitted concentration of half-maximal effect; % is set by controls: 0 for no effect and ±100 for the full control effect
Target sequence (P51570 whole entry, looked up): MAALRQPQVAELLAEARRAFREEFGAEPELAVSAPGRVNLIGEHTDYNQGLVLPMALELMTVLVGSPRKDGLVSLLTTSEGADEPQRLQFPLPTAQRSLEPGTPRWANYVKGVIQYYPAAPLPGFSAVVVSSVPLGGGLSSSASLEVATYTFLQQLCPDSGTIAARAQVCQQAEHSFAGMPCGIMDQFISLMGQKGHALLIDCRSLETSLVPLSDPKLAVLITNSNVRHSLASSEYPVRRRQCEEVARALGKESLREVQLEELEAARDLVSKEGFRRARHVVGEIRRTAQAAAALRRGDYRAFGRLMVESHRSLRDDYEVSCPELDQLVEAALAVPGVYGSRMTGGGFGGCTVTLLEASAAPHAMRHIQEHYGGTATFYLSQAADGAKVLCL
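Luminescence from leftover ATP (Ultra-Glo luciferase/luciferin) served as read-out after a 1 h room-temperature reaction of 5 nM GALK with 35 uM ATP and 100 uM galactose.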
TSHR antagonist: antagonists of human thyroid stimulating hormone receptor; TSHR-expressing cells, TSH-stimulated cAMP HTRF, 2 h; active compounds read low; 330,000 tested, 0.2% active; activity change, negative = inhibition, % at 11.5 µM; P16473; AID 504810;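 active = activity change below a set negative limit, meaning inhibition stronger than a set level, cut at about -70% in these data; inconclusive = activity change between two set negative limits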; note: % is set by controls: 0 for no effect and ±100 for the full control effect
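Inhibition of cAMP made by TSHR-expressing cells under TSH stimulation (4nM final, EC80; 2 h, 37 deg C) is quantified with a one-step lysis HTRF kit, anti-cAMP cryptate versus cAMP-d2.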
MBNL1-CUG inh: blocks human MBNL1 binding to CUG repeat RNA; Potency, µM (highest dose often 57.5 µM), without a hit: at the top dose activity change, negative = inhibition, most hits filed as inhibitors; 280,000 tested, 0.036% active; TR-FRET MBNL1-His/biotin-(CUG)12 binding, 665/545 ratio; AID 2675; Q9NR56; active = well fitted inhibition curve with a large enough effect in the signal ratio, with a control signal flat, not every such curve was filed as active; inconclusive = small, poorly fitted or top-dose-only effect, or effect the other way, or a change in a side signal; inactive = no such curve, though single readings can be large or run the other way; the % refers to the signal ratio; note: potency is the fitted concentration of half-maximal effect; % is set by controls: 0 for no effect and ±100 for the full control effect
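Ratiometric TR-FRET (665 over 545 nm, excitation 340 nm) tracks disruption of MBNL1-His/biotin-(CUG)12 complex after 60 min at room temperature, with compounds at 92 nM to 58 uM final.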
Mito fusion act: blocks mitochondrial division or promotes mitochondrial fusion; 320,000 tested, 0.23% active; Potency, µM (doses to about 46.1 µM), without a hit: at the highest dose growth rescue (activation), actives largely listed as activators; S. cerevisiae fusion-defective mutant growth rescue, CellTiterGlo 48 h;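 note: potency is the fitted concentration of half-maximal effect; % of control where 0% means no effect; nearly all actives have a fitted effect of over 45% in size; temperature-sensitive fusion mutants such as fzo1-1 at 37 °C on non-fermentable ethanol glycerol medium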
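Growth-rescue viability read-out: after 48 h at the non-permissive 37C in glycerol/ethanol YPEG, yeast mitochondrial fusion mutants are measured by CellTiterGlo luminescence; compounds (23 nl pinned per well) restoring growth score as division inhibitors or fusion activators.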
USP2a inh: blocks human ubiquitin-specific protease USP2a; Potency, µM (highest dose often 38.3 µM), without a hit: at the top dose activity change, negative = inhibition, actives largely listed as inhibitors; USP2 core, Ub-CHOP2 coupled fluorogenic reporter, 485/531; O75604; 330,000 tested, 0.01% active;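 note: potency is the fitted concentration of half-maximal effect; plate controls were DMSO wells for no effect and full inhibition by NEM control for full effect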
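Deubiquitinase activity read as fluorescence (485/531 nm) after Ub-CHOP2 cleavage activates the enterokinase reporter on its substrate; USP2 core 10nM, Ub-CHOP2 and substrate 25nM each, 30min compound preincubation then 60min RT; data normalized to NEM, curves fitted.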
ASM inhibitor: blocks human secretory acid sphingomyelinase; Potency, µM (series often up to 57.5 µM), for the others: at the highest dose activity change, negative = inhibition, actives largely listed as inhibitors; placental ASM, HMU-PC fluorogenic substrate, 60 min; P17405; 340,000 tested, 0.006% active; note: potency is the fitted concentration of half-maximal effect
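qHTS format. ASM enzyme prepared from human placenta hydrolyses the fluorogenic substrate HMU-PC0 (9 uM final) over 60 min at 37 °C after a 10 min compound preincubation.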
hERG WT inh: blocks the wildtype human KCNH2 potassium channel | U2OS, BacMam KCNH2, thallium flux FluxOr; active compounds read low | activity change, % at 1.84 µM | 340,000 tested, 0.37% active | Q12809 | AID 720551;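 active = maximum activity change below -70%; inconclusive = maximum activity change between -70% and -50%; inactive = maximum activity change above -50%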; note: % is set by controls: 0 for no effect and ±100 for the full control effect
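U2OS cells were transduced with wild-type KCNH2 virus (2.03 x 10^8 / mL) for 4 h at room temperature, then cultured overnight at 37 C. Thallium flux was read with FluxOr dye. Rate constants were normalized to DMSO controls.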
Menin MLL FP TR: menin-MLL binding inhibition, Texas Red mutant peptide. Potency, µM (series often up to 61.6 µM), inactives show at the highest dose FP activity change, negative = inhibition, most hits filed as inhibitors. 270,000 tested, 0.23% active. Menin + Texas Red MLL mutant peptide, fluorescence polarization; active = well fitted inhibition curve with a large enough effect in the polarisation, with a control signal flat, not every such curve was filed as active; inconclusive = small, poorly fitted or top-dose-only effect, or effect the other way, or a change in a side signal; inactive = no such curve, though single readings can be large or run the other way; the % refers to the polarisation; note: potency is the fitted concentration of half-maximal effect; % of control where 0% means no effect; many of its hits are not listed in these tables
Eya2 phos inh: blocks the phosphatase activity of human Eya2 | O00167 | recombinant Eya2, OMFP fluorescence dephosphorylation (OMFP is methylfluorescein phosphate) | Potency, µM (titrated, usually from 76.9 µM), for inactives: at the highest dose activity, negative = inhibition, hits mostly inhibitors | 330,000 tested, 0.006% active | AID 488837; note: potency is the fitted concentration of half-maximal effect; % is set by controls: 0 for no effect and ±100 for the full control effect
Target sequence (O00167 whole entry, looked up): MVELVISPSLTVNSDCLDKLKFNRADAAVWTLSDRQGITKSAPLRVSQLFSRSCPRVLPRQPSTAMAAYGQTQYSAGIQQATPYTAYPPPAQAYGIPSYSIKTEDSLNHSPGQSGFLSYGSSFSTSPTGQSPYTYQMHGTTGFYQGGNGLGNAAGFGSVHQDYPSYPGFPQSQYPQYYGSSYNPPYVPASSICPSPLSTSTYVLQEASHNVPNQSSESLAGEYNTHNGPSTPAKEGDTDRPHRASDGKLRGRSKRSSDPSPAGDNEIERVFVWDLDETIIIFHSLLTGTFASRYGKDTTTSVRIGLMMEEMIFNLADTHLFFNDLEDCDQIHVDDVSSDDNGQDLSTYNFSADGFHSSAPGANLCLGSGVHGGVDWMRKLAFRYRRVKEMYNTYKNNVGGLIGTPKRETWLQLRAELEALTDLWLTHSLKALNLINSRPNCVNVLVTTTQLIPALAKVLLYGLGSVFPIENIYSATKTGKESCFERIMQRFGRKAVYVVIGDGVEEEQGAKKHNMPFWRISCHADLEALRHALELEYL
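Eya2 protein (added as 0.2 uM solution) was preincubated with compound for 10 min at ambient temperature in 50 mM HEPES pH 7.5, 50 mM NaCl, 5 uM MgCl2, 0.05% BSA, 1 mM DTT. OMFP (added at 50 uM) then reacted 10 min; fluorescence read at 485/525 nm.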
BCR signal inh: blocks chronic active B-cell receptor signaling | ABC-DLBCL IkBa-CBG/CBR reporter, luminescence ratio, 4 h | Potency, µM (doses to about 46.1 µM), for inactives: at the top dose ratio change, negative = lower green/red ratio, usual class: inhibitors | 340,000 tested, 0.05% active; active = well fitted inhibition curve with a large enough effect in the signal ratio, with a control signal flat, not every such curve was filed as active; inconclusive = small, poorly fitted or top-dose-only effect, or effect the other way, or a change in a side signal; the % refers to the signal ratio;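 note: potency is the fitted concentration of half-maximal effect; plate controls were basal doxycycline-induced cells for no effect and cells given 10 µM MG132 for full effect; MG132 reads +100%, hits lower the ratio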
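Doxycycline induced both beetle luciferases in TMD8 lymphoma cells; IKK-driven degradation limits the IkappaBalpha-fused green signal, while red luminescence normalises for cell number and nonspecific effects. Compounds tested up to 46 uM, 4 hrs.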
* marks the source's active call; other numbers are inactive results; ? = inconclusive; . = not tested or not shown; [ ] = remark or other dose. Unless noted, calls come from the whole dose curve; as a rule, active = well fitted curve in the direction sought with a large enough effect; inconclusive = small, poorly fitted or top-dose-only effect, or another doubt; inactive = no such curve, though single readings can be large; an effect the other way counts as inactive or inconclusive.

SMILES | GALK inh | TSHR antagonist | MBNL1-CUG inh | Mito fusion act | USP2a inh | ASM inhibitor | hERG WT inh | Menin MLL FP TR | Eya2 phos inh | BCR signal inh
COc1ccccc1Nc1nnc(SCC(=O)N2CC(=O)Nc3ccccc32)s1 | -0.9% | 4.4 | -12.9% | 0.3% | 3.6% | -0.4% | -12.4 | -1.4% | 7.8% | -16.0%
O=S(=O)(c1cccs1)N1CN(Cc2ccccc2)c2nc3ccccc3nc21 | -1.1% | 10.2 | -3.2% | 4.4% | 1.2% | -2.6% | -2.8 | -15.4% | 12.9% | 5.0%
O=C1c2ccccc2-c2n[nH]c(=O)c3ccc(N4CCCCC4)c1c23 | 0.3% | -5.9 | ? | 7.0% | 3.7% | -21.9% | 2.1 | 22.4% | -0.5% | ?
Cc1cnn(-c2cc(N/N=C/c3cccc(F)c3)ncn2)c1 | -0.1% | -1.3 | . | -3.2% | -0.5% | -3.0% | -20.6 | -11.1% | 0.6% | -0.7%
CS(=O)(=O)N1CCC(C(=O)N2CCN(c3ccccc3F)CC2)CC1 | -0.8% | 0.7 | -5.2% | -8.2% | -2.7% | 1.8% | -3.2 | 4.8% | 3.7% | ?
Cc1cc2c(=O)n(C)c(SCC(=O)Nc3ccccc3)nc2s1 | -2.0% | 4.2 | -4.6% | 0.0% | 0.0% | -2.1% | 20.3 | ? | -6.9% | 7.4%
Cc1ccc(S(=O)(=O)/N=C(\CSC(N)=O)Nc2ccccc2)cc1 | -1.0% | -0.4 | -2.7% | 0.1% | -1.2% | -0.4% | 1.0 | 3.0% | 21.0% | 0.0%
O=C(c1ccc(F)cc1)C1CCN(C(=S)NCC2CCCO2)CC1 (stereo not drawn) | 0.3% | -4.9 | 9.5% | -0.1% | 1.0% | 3.4% | -1.2 | -2.8% | 2.3% | -12.0%
COc1ccc(Cl)cc1C(=O)NCCN1CCOCC1 | . | 30.3 | 10.4% | 0.9% | 3.0% | 0.0% | -10.0 | 10.9% | 14.5% | 7.2%
CC(C)(C)n1nnnc1C(c1cccnc1)N1CCN(c2ccccc2F)CC1 (stereo not drawn) | 0.1% | -7.2 | 10.5% | -1.1% | 1.5% | 5.5% | -4.9 | 21.0% | 5.2% | 16.3%
CC(=O)NS(=O)(=O)c1ccc(NC(=O)COc2ccc(C(=O)c3ccccc3)cc2)cc1 | 0.7% | 4.7 | -14.8% | -4.4% | -2.3% | -3.7% | 10.7 | 12.3% | 7.9% | 0.2%
COc1ccccc1CNC(=O)COC(=O)Cc1ccsc1 | -6.3% | 3.5 | . | -0.6% | -1.1% | -0.7% | 3.0 | -9.3% | 16.8% | 1.6%
COC(=O)CNC(=O)Cc1c(C)n(C(=O)c2ccc(Cl)cc2)c2ccc(OC)cc12 | 1.1% | 0.6 | 11.0% | -2.6% | -5.6% | -5.1% | 2.2 | . | -7.2% | ?
COc1ccc(C2C([N+](=O)[O-])=C(C)N(C)C(=O)N2C)cc1OC (stereo not drawn) | 9.2% | -3.9 | 16.7% | -3.9% | 0.5% | 0.0% | -2.2 | 6.5% | -15.5% | -1.3%
CCOc1ccc(N/C=C/C(=O)c2cc(OC)c(OC)c(OC)c2)cc1 | -1.6% | -14.2 | ? | -0.7% | 3.5% | 2.1% | -6.4 | 11.3% | 0.4% | ?
O=C(O)CCC(=O)N1N=C(c2ccccc2)CC1c1ccc2nccnc2c1 (stereo not drawn) | -0.1% | 9.2 | 7.0% | -4.1% | 4.6% | 1.5% | -9.3 | -1.6% | -18.8% | ?
COc1ccc(C(=O)NN=C2CCCC2)cc1 | 2.8% | 14.0 | 3.4% | 4.2% | -0.4% | 1.8% | 8.3 | 8.6% | 0.1% | ?
COc1cc(C=C2C(=O)c3ccccc3C2=O)cc(OC)c1OC | -4.5% | -5.0 | 12.2% | 22.6% | 7.8% | -2.6% | -0.5 | 14.1% | -0.7% | ?
Cc1cc(NC(=O)c2ccccc2)n(-c2nc3ccccc3[nH]2)n1 | 11.4% | -7.5 | ? | 8.7% | 1.4% | 0.1% | -25.2 | 14.9% | 8.6% | ?
COC(=O)c1ccccc1NC(=O)NCc1ccccc1 | -0.7% | -5.6 | 10.1% | -5.1% | -1.1% | -6.1% | -3.8 | 1.1% | 6.6% | ?
COc1cccc2cc(C(=O)CC3(O)C(=O)N(Cc4ccccc4)c4ccccc43)c(=O)oc12 (stereo not drawn) | -5.4% | 6.1 | 18.7% | 0.0% | 0.0% | -0.7% | -13.2 | 6.9% | -8.8% | -3.7%
CC(=O)Nc1nc2c(c3c1c(=O)oc1ccccc13)CC(C)CC2 (stereo not drawn) | -3.3% | -8.4 | 3.2% | 3.4% | 3.1% | . | . | 9.7% | 0.9% | 14.3%
Cc1cc(C)n(-c2nc3ccccc3nc2N2CCCC2)n1 | -1.8% | 4.9 | 11.0% | 0.1% | 1.6% | 34.3% | 10.9 | -7.8% | -3.7% | -2.0%
CN1CCN(c2cc(N3CCc4ccccc4C3)c(F)cc2[N+](=O)[O-])CC1 | 3.2% | -1.5 | ? | -13.1% | -1.1% | -12.2% | -4.6 | -2.2% | -2.8% | ?
COc1ccc2cc(C(=O)c3ccccc3)c(=O)oc2c1 | -1.6% | -9.7 | ? | 4.0% | 1.4% | 8.7% | 1.5 | 5.6% | -1.3% | -0.4%
Cc1ccc(C)c(N2CCN(C(=O)C3CCC3)CC2)c1 | -0.3% | -11.6 | 5.0% | 3.6% | -2.0% | 0.9% | -1.7 | 0.9% | -0.3% | 0.5%
CCC(=O)Nc1ccc(NC(=S)NC(=O)/C=C/c2ccco2)cc1 | -0.3% | -14.7 | ? | -7.4% | 0.1% | -8.9% | -10.0 | 32.9%[activator] | -9.4% | -10.7%
Cc1cc(-c2ccccc2)n(-c2ccc(C(N)=O)cc2)n1 | -2.1% | 14.7 | -7.0% | -1.3% | 1.3% | 7.3% | -4.0 | -26.7% | -9.5% | 2.3%
Cc1c(C(c2ccccc2Br)c2c(C)n(C)n(-c3ccccc3)c2=O)c(=O)n(-c2ccccc2)n1C | -8.1% | 14.1 | 2.1% | 0.1% | -0.8% | 1.4% | -15.8 | -6.1% | -9.6% | -0.3%
Cc1ccc(CCNS(=O)(=O)c2cc3c(cc2C)n(C)c(=O)c(=O)n3C)cc1 | . | -7.2 | 0.9% | -0.5% | 1.8% | -4.0% | -3.5 | -14.2% | 9.9% | 2.6%
O=C(Nc1nc2cc3c(cc2s1)OCO3)C1=COCCO1 | . | 4.2 | 30.0%[activator] | 1.2% | 0.6% | 3.1% | -3.2 | 6.2% | -11.8% | ?
CN(c1ccccc1)S(=O)(=O)c1ccc(C(=O)Nc2nnc(-c3ccco3)o2)cc1 | -1.7% | -6.6 | 3.6% | ? | -0.6% | 1.2% | 3.2 | ? | -7.3% | -1.4%
c1ccc2c(c1)[nH]c1c(NCC3CCCO3)ncnc12 (stereo not drawn) | 2.7% | -9.7 | 0.9% | 2.6% | -0.8% | 0.5% | -10.0 | 4.1% | -14.9% | 0.9%
CC(=O)c1cc(-c2ccccc2)n(CC(=O)Nc2ccc(C)c(C)c2)c1C | 2.3% | -8.3 | -19.0% | 0.6% | -0.6% | 0.3% | -4.7 | -4.0% | -6.0% | ?
Cc1cccn2c(CNCCc3ccccn3)c(C(=O)N3CCOCC3)nc12 | -4.0% | -26.9 | -0.5% | -3.0% | -1.1% | -0.5% | 4.0 | -19.3% | 4.8% | 4.2%
O=C(COC(=O)CCc1nc2ccccc2c(=O)[nH]1)Nc1ccc2c(c1)OCO2 | -3.1% | -2.8 | . | -0.5% | 2.0% | 4.8% | 6.5 | . | -12.9% | -9.8%
CC(C)c1cccc(C(C)C)c1NC(=O)COC(=O)[C@H](C)NC(N)=O | 0.1% | 10.3 | -7.5% | 2.3% | 1.5% | 8.5% | -2.2 | -3.5% | 0.6% | 2.2%

Not all compounds are listed; the hit share may differ from the screen's.
